# Screening results deposited in PubChem by National Center for Advancing Translational Sciences (NCATS).
# Cruzain Triton: qHTS Assay for Promiscuous and Specific Inhibitors of Cruzain (with detergent); Cruzipain (Trypanosoma cruzi), P25779; purified cruzain, Z-FR-AMC fluorescence, 0.01% Triton; 0.43% of 200,000 active; Potency, µM, for inactives: max response, negative = inhibition, hits mostly inhibitors; active means well fitted curve in the direction sought with a large enough effect; inconclusive means small, poorly fitted or top-dose-only effect, or another doubt; inactive means no such curve, though single readings can be large; an effect the other way counts as inactive or inconclusive;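 further: plate controls were neutral wells for no effect and buffer without enzyme for full effect; nearly all actives have a fitted effect of over 40% in size; top concentration of the series not given in the record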
# Target sequence (P25779 123-467 limits assumed): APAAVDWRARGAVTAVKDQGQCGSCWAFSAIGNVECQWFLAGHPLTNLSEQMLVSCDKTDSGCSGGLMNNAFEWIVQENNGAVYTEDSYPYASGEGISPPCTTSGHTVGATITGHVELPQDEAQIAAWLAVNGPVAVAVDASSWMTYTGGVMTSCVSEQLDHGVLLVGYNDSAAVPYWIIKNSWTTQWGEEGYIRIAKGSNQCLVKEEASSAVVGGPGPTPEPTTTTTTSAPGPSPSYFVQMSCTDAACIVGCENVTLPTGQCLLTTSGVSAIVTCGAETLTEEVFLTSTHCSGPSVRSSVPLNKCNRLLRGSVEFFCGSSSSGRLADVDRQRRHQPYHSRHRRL
#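 In this qHTS format, compounds are incubated with 1.5 nM cruzain for 15 min at room temperature before 2 uM Z-FR-AMC is added. Release of AMC is followed at 360/450 nm, and progress is taken as the 60 s fluorescence difference.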
# Lassa entry inh: qHTS for Inhibitors of binding or entry into cells for Lassa Virus; Lassa virus pseudotype entry inhibition, cell reporter; control for the full effect not named in the record; Potency, µM (top dose mostly 37.9 µM), for inactives: at the top dose activity change, negative = inhibition, most hits filed as inhibitors; 1.2% of 300,000 active; AID 540256, 2011; active means well fitted inhibition curve with a large enough effect; inconclusive means small, poorly fitted or top-dose-only effect, or effect the other way; inactive means flat fitted curve, though single readings scatter; tested in HEK293 cells; further: on the % scale 0 is the no-effect control and ±100 the full control effect; nearly all actives have a fitted effect of over 50% in size; luciferase read-out
# SARS PLpro yeast: qHTS of Yeast-based Assay for SARS-CoV PLP. S. cerevisiae expressing SARS-CoV PLpro, growth rescue; control for the full effect not named in the record. Potency, µM (doses to about 32.9 µM), for the others: top-dose activity, positive = growth rescue. 0.19% of 330,000 active. AID 485353, 2010; further: 0% is about no effect; nearly all actives have a fitted effect of over 55% in size; growth read by luminescence after 48 h
# Cruzain noTriton: qHTS Assay for Promiscuous and Specific Inhibitors of Cruzain (without detergent). 2.3% of 200,000 active. purified cruzain, Z-FR-AMC fluorescence, no detergent. AID 1476, 2009. Potency, µM, without a hit: max response, negative = inhibition, usual class: inhibitors; active means well fitted curve in the direction sought with a large enough effect; inconclusive means small, poorly fitted or top-dose-only effect, or another doubt; inactive means no such curve, though single readings can be large; an effect the other way counts as inactive or inconclusive;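 further: plate controls were enzyme without inhibitor for no effect and buffer without enzyme for full effect; nearly all actives have a fitted effect of over 40% in size; top concentration of the series not given in the record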
#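 Detergent-free condition (0.00005% Triton X-100) in acetate buffer pH 5.5 with DTT. 1.5 nM enzyme and compound were pre-mixed 15 min, then 2 uM Z-FR-AMC substrate added; reaction progress from fluorescence change between first and third reads (60 s).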
# 2A StopGo: High Throughput Screening for Foot and Mouth Disease Virus Antivirals. human cells with a luciferase reporter of 2A StopGo recoding; control for the full effect not named in the record. Potency, µM (highest dose often 57.9 µM), for inactives: at the top dose signal change, negative = less light. 1.2% of 410,000 active; active = well fitted falling curve with a large enough effect; inconclusive = small, poorly fitted or top-dose-only effect; inactive = no such curve, though single readings can be large or run the other way; tested in HEK293T cells; further: on the % scale 0 is the no-effect control and ±100 the full control effect; nearly all actives have a fitted effect of over 45% in size; luciferase light after 4 h
# RE007 growth inh: qHTS Assay for Inhibitors of the HIV-1 protein Vpr | S. pombe RE007 Vpr strain, BacTiter-Glo ATP luminescence, 24 h; control for the full effect not named in the record | Potency, µM (titrated, usually from 92.2 µM), for the others: at the top dose activity change, negative = less growth | 0.21% of 360,000 active; active = well fitted falling curve with a large enough effect; inconclusive = small, poorly fitted or top-dose-only effect; inactive = no such curve, though single readings can be large or run the other way;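 further: on the % scale 0 is the no-effect control and ±100 the full control effect; nearly all actives have a fitted effect of over 50% in size; the assay follows cell death caused by Vpr and the record does not say whether a fall means rescue or toxicity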
#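 Fission yeast strain RE007, carrying one chromosomally integrated HIV-1 vpr copy, was seeded at OD 0.01 in PMG+AL medium with 23 nL pinned compound. After 24 h at 30 °C and 99% humidity, viability was read by BacTiter-Glo luminescence.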
# Marburg entry inh: qHTS for inhibitors of binding or entry into cells for Marburg Virus. Marburg virus pseudotyped entry inhibition, cell reporter; control for the full effect not named in the record; about a third of the inactives were read at about 46 µM. Potency, µM (highest dose often 37.8 µM), for inactives: at the top dose activity change, negative = inhibition, hits mostly inhibitors. 1.8% of 300,000 active. AID 540276, 2011; active = well fitted inhibition curve with a large enough effect; inconclusive = small, poorly fitted or top-dose-only effect, or effect the other way; inactive = flat fitted curve, though single readings scatter; tested in HEK293 cells; about a fifth of its hits are not listed in these tables; further: on the % scale 0 is the no-effect control and ±100 the full control effect; luciferase read-out
# NS1 inh: qHTS Assay for Inhibitors of Influenza NS1 Protein Function; AID 2326, 2010; 0.4% of 270,000 active; S. cerevisiae slowed by influenza A NS1, growth recovery by OD600; Potency, µM (series often up to 46.1 µM), without a hit: top-dose activity, positive = more growth; further: actives are rising curves; nearly all actives have a fitted effect of over 50% in size
#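 In this qHTS, NS1 from influenza A is expressed in budding yeast, where it slows growth. Cells are switched from glucose to 2% galactose medium (pH 6.0, -URA), treated with compound, and growth recovery is read at OD600.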
# Numbers without * were called inactive; ? = inconclusive; / = not tested or not shown; & = joins results of further samples; [ ] = another dose, or the depositor's remark. Unless noted, the call rests on the fitted dose curve; in most records, active means well fitted rising curve with a large enough effect; inconclusive means small, poorly fitted or top-dose-only effect; inactive means no such curve, though single readings can be large or run the other way. Potency means the concentration at half of the fitted maximal effect.
compound	Cruzain Triton	Lassa entry inh	SARS PLpro yeast	Cruzain noTriton	2A StopGo	RE007 growth inh	Marburg entry inh	NS1 inh
COc1cc(CC(=O)OCC(=O)NCC(C)C)cc(OC)c1OC	/	1%[46.1 µM]	2%	/	-12%	5%	1%[46.1 µM]	5%
Cc1ccc(NC2=NCC(=O)N2C2CCCC2)cc1C	/	25%	1%	/	-4%	4%	-4%[46.1 µM]	2%
O=C1CC2(CCN(C(=O)c3ccc(Cl)cc3)CC2)Oc2ccccc21	/	-18%	-1%	/	-25%	17%	-9%[46.1 µM]	/
COc1ccccc1C(=O)NC(=O)Nc1cccc(Cl)c1	/	/	-3%	/	17%	-18%	/	-2%
CNC(=S)N1N=C(c2ccc(OC)cc2)CC1c1ccc(Cl)cc1Cl (stereo not given)	/	?	-1%	/	-14%	-2%	?	12%
COc1ccc(-n2c(=O)cc(N3CCCCCC3)[nH]c2=O)cc1	2.6%	1%	5%	4%	14%	26%	-4%	2%
O=C(CNS(=O)(=O)c1ccc(F)cc1)N1CCCCCC1	/	2%	1%	/	41%[activator]	8%	?	2%
COc1ccc(C(CC(=O)O)NC(=O)COc2ccccc2)cc1OC (stereo not given)	3.4%	17%	-1%	-8%	1%	16%	-16%[46.1 µM]	-3%
CCOC(=O)c1c(-c2ccc(C)cc2)csc1NC(=O)c1nc(SCC)ncc1Cl	-1.2%	17%[46.1 µM]	/	-8%	?	/	20%[46.1 µM]	/
CCCCN1C(=O)CC(SC2CC(=O)N(CCCC)C2=O)C1=O (stereo not given)	/	-27%[46.1 µM]	/	/	-1%	-8%	-12%[46.1 µM]	/

# Quoted at random: 2 compounds from above
compound	Cruzain Triton	Lassa entry inh	SARS PLpro yeast	Cruzain noTriton	2A StopGo	RE007 growth inh	Marburg entry inh	NS1 inh
CNC(=S)N1N=C(c2ccc(OC)cc2)CC1c1ccc(Cl)cc1Cl (stereo not given)	/	?	-1%	/	-14%	-2%	?	12%
CCCCN1C(=O)CC(SC2CC(=O)N(CCCC)C2=O)C1=O (stereo not given)	/	-27%[46.1 µM]	/	/	-1%	-8%	-12%[46.1 µM]	/

# The list continues:
compound	Cruzain Triton	Lassa entry inh	SARS PLpro yeast	Cruzain noTriton	2A StopGo	RE007 growth inh	Marburg entry inh	NS1 inh
COc1ccc(-n2c(-c3ccc(C)cc3)cc3c2CC(C)(C)CC3=O)cc1Cl	1.0%	-7%[46.1 µM]	/	1%	?	/	-2%[46.1 µM]	/
CSc1nnc(C)c(/C=C/Nc2ccc(Cl)cc2)n1	-1.2%	-23%	-2%	?	-28%	-17%	?	-7%
COCCN1C(=O)N(c2cccc(C)c2)C(=O)C1CC(=O)Nc1cc(OC)cc(OC)c1 (stereo not given)	/	/	-5%	/	-13%	-3%	/	-1%
Cc1ccc2nc(C(F)(F)F)c(C#N)c(N)c2c1	-6.4%	0%	-10%	-4%	-26%	1%	-20%&-20%	-4%[9.22 µM]
CC1CC(C)CN(C/C=C/c2ccccc2[N+](=O)[O-])C1 (stereo not given)	5.7%	?	2%	6%	-18%	-26%	?	4%
CCOC(=O)c1csc(NC(=O)CN2CCN(C)CC2)n1	/	/	-1%	/	-22%	25%	/	1%
O=C(COc1ccc(-c2ccccc2)cc1)N1CCN(S(=O)(=O)Cc2ccccc2)CC1	1.0%	-29%	-6%	12%	?	-1%	-17%	3%
Cc1ccc(S(=O)(=O)Nc2nc(C)c(C(=O)NN)s2)cc1	/	?	0%	/	-10%	-18%	-4%[46.1 µM]	16%
Cn1c(NC(=O)c2ccccc2F)c(-c2cccs2)c(=O)c2ccccc21	/	14%	0%	/	-4%	9%	-1%	3%
COc1ccc(-c2nc(CS(=O)CC(=O)NCc3ccc(C)cc3)c(C)o2)cc1OC (stereo not given)	/	/	0%	/	-6%	-10%	/	8%
CN(CCCC(=O)NCc1ccc2c(c1)OCO2)S(=O)(=O)c1ccc([N+](=O)[O-])cc1	/	-3%	2%	/	?	-2%	-11%	4%
COc1ccc2c(c1)oc(=O)c1ccccc12	/	/	-1%	/	27%	-8%	/	-7%
CCN(CC(=O)Nc1ccc2c(c1)OCCO2)C(=O)/C=C/c1cccc(OC)c1OC	/	-2%	3%	/	31%[activator]	3%	?	/
O=C(Nc1ccccc1)c1ccc(CSc2ccccn2)cc1	2.3%	?	2%	4%	-21%	?	?	28%
N#Cc1ccccc1OCC(=O)Nc1ccccc1C(=O)NC1CC1	/	-1%	1%	/	0%	-16%	0%[46.1 µM]	/
O=C(COC(=O)c1cc2ccccc2cc1O)c1ccccc1	/	/	-1%	/	46%[activator]	-11%	/	1%
O=C(CONS(=O)(=O)c1ccc(Cl)cc1)NCCNc1ncc(C(F)(F)F)cc1Cl	/	-23%[46.1 µM]	0%	/	-18%	8%	?	4%
Fc1ccc(CNC(=S)NC2CCCCC2)cc1	/	/	1%	/	17%	7%	/	-7%
COC(=O)c1c(NC(=O)COC(=O)c2ccccc2O)sc2c1CCCCC2	-3.4%	-6%	3%	?	-6%	4%	16%	2%
COc1ccc(S(=O)(=O)N2CCCCC2)cc1NC(=S)Nc1ccccc1	-6.3%	-5%	18%	7%	1%	3%	-22%	8%
Cc1cc2nc(CCN(Cc3cccnc3)C(=S)Nc3ccccc3)[nH]c2cc1C	1.7%	-25%	-5%	-4%	/	-13%	-27%	-3%
COc1ccc(CNC(=O)c2cccc(-n3cnc4cccnc43)c2C)cc1	-1.5%	14%[46.1 µM]	/	-5%	-10%	/	/	/
Cc1cc(N2CCN(c3ccc(F)cc3)CC2)n2cnnc2n1	-0.8%	1%[46.1 µM]	/	-19%	-26%	/	-20%[46.1 µM]	/
O=C(CSc1nnc(-c2ccccc2)n1Cc1ccccc1)NNC(=O)c1ccccc1O	-9.5%	?	5µM*	-14%	-4%	26%	?	11%
CN(c1ccccc1)S(=O)(=O)c1cccc(C(=O)Nc2ncn[nH]2)c1	/	/	-2%	/	-15%	0%	/	-2%
Cc1ccc(NC(=O)COc2ncnc3ccccc23)cc1S(=O)(=O)N1CCOCC1	-3.8%	5%	8%	1%	-7%	8%	4%	5%
CSc1ccc(CCNC(=O)c2csc3c2CCCCC3)cc1	-2.7%	/	/	?	11%	/	/	/
CCCn1nnc(NC(=O)c2ccc([N+](=O)[O-])cc2Cl)n1	/	7%[46.1 µM]	-1%	/	22%	-3%	21%[46.1 µM]	1%
Cc1ccc(S(=O)(=O)N2CCC(C(=O)N[C@@H](C)C(=O)NC3CCS(=O)(=O)C3)CC2)cc1 (stereo not given in full)	1.9%	-16%	-10%	7%	/	/	-10%	2%
CC1(C)CC(=O)C(C=NCCN2CCN(CCc3ccccc3)CC2)=C(O)C1	-0.1%	-9%	13%	-14%	-16%	1%	?	-1%
Cc1ccc(S(=O)(=O)N(Cc2ccc(F)cc2)C(=O)N2CCN(C)CC2)cc1	/	14%	0%	/	-2%	1%	-34%	/
Cc1ccccc1OC1CCN(C(=O)C2CCC(=O)N(C3CCCC3)C2)CC1 (stereo not given)	/	/	-11%	/	?	0%	/	-13%
CSc1ncccc1C(=O)Nc1ccc(OC(F)(F)F)cc1	/	-6%	-2%	/	11%	9%	-29%[46.1 µM]	/
Cc1ccccc1OCCC(=O)Nc1ccccc1C(=O)NC1CC1	/	0%	5%	/	-23%	-8%	17%[46.1 µM]	/
CCOC(=O)c1[nH]c(C)c(/C(O)=C2\C(=O)C(=O)N(CCCN(CC)CC)C2c2cccnc2)c1C (stereo not given)	/	3%	/	/	-26%	-1%	9%[46.1 µM]	-1%
Cc1cc(C)nc(-n2ncc3c2CC(c2ccc(F)cc2)CC3=O)n1 (stereo not given)	/	-5%[46.1 µM]	-6%	/	-11%	-18%	-5%[46.1 µM]	/
CCc1ccc(C(=O)COC(=O)c2cnc(C)cn2)cc1	/	-3%[46.1 µM]	3%	/	12%	12%	7%[46.1 µM]	11%
Cc1ccc2oc(-c3cc(NC(=O)c4ncn[nH]4)ccc3O)nc2c1	/	1%[46.1 µM]	-2%	/	8%	-12%	-2%[46.1 µM]	/
CC(=O)c1cccc(N(C(=O)c2ccco2)C(C(=O)NC2CCCCC2)c2ccc(C)o2)c1 (stereo not given)	/	-27%	-5%	/	10%	10%	0%[46.1 µM]	5%
CCCOc1cccc(-c2nc3ccccc3c(=O)o2)c1	/	?	-2%	/	37%[activator]	-4%	-9%[46.1 µM]	-6%
COc1ccc(Br)cc1CNC(=O)C(C)n1nc(C)n2c(cc3occc32)c1=O (stereo not given)	-1.0%	/	/	-3%	-9%	/	-27%[46.1 µM]	/
COCCNC(=O)COC(=O)c1ccc(S(=O)(=O)N2CCOCC2)cc1	/	?	-5%	/	-7%	10%	17%[46.1 µM]	/
COc1ccc(N=C2C(=Nc3ccc(OC)cc3)N(c3ccc(OC)cc3)C(=S)N2c2ccccc2)cc1	-0.3%	-7%	14%	?	/	-11%	0%	-12%
N#CC1=C(SCC(=O)c2ccccc2)NC2=C(C(=O)CCC2)C1c1ccco1 (stereo not given)	?	?	8%	-28%	-12%	-2%	?	20%
Cc1[nH]c(=O)c(C#N)c2c1CCCC2	-3.3%	-5%	2%	?	-4%	-2%	?	11%
O=C(c1ccc(Cl)c(Cl)c1)N(Cc1ccco1)c1ccc(O)cc1	-5.9%	?	-8%	-9%	?	6%	-17%	-46%
COc1ccc2c(c1)c(CC(=O)O)c(C)n2Cc1ccc(F)cc1	-4.5%	/	/	6%	/	/	?	18%
